Sa ugtP lethal: compounds lethal to S. aureus RN4220 ugtP deletion mutant; OD600 growth, 16 h; some inactives read as strong as hits; AID 1259309; growth inhibition, % (concentration not given with the values); hit rate 0.54% among 330,000;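 active means z-score under -3 and OD600 up to 0.15 on both plates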;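 further: plate controls were untreated wells for no effect and antibiotic for full effect; wells of about 80 µL received 100 nL stock; the first replicate is given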
BJeLR lethal: kills HRASV12-expressing BJeLR cells. BJeLR (HRASV12) viability, CellTiter-Glo ATP luminescence, 48 h; reference of the scale not given here. inhibition, % (concentration not given with the values). hit rate 0.17% among 300,000. AID 1554;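 active means replicate mean above 50%; inconclusive means above 50% but judged a plate artefact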;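 further: 50 nL library stock added to about 25 µL; numbers are from one replicate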
PrP 5UTR inh: suppresses PrP 5' UTR mRNA reporter expression. AID 488862. inhibition, % (no concentration beside the values). cell-based PrP 5' UTR mRNA reporter, plate reader. hit rate 0.35% among 340,000;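 active means every replicate at 50% or more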;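 further: 0 = median of the neutral control wells; tested in H4 reporter cells; numbers are from one replicate; inactives centre near -14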
Autofluor counter: counter-screen for toxin protease inhibitors: compound fluorescence; fluorescence intensity (test concentration not listed); hit rate 3.1% among 360,000; compound autofluorescence counterscreen, microsphere flow cytometry; active compounds read high;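 active means at least 3 SD above the mean of all compounds, about 16000 in these data; inconclusive means too few beads counted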;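 further: 100 nL of 1 mM stock went into each well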
RN4220 kill: S. aureus RN4220 growth inhibition | inhibition, % (test concentration not listed) | hit rate 0.33% among 330,000 | OD600, 16 h;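 active means z-score of -3 or lower and OD600 up to 0.18 on both plates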;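 further: plate controls were untreated cells for no effect and reference antibiotic for full effect; stock transfer was 100 nL into about 80 µL; one replicate is shown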
Mtb hypoxia inh: reduces hypoxia-regulated biosensor signal in M. tuberculosis; M. tuberculosis hypoxia-regulated fluorescent reporter, fluorescence; fluorescence inhibition, % (no concentration beside the values); hit rate 0.1% among 300,000; AID 1159583;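 active means 35 to 45% if threefold the growth effect, above 45% if 1.5-fold the growth effect; inactive means the rest, general growth blockers included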;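 further: wells of about 50 µL received 100 nL stock; 0% = vehicle wells and 100% = reference inhibitor wells; whole bacteria with a GFP reporter of the hypoxia response; strong numbers were not always called active; many hits fall short of the cut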
Mtb hypoxia inh growth: also measured in Mtb hypoxia inh; calls as there; growth inhibition, %; measured here: M. tuberculosis growth (absorbance);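 0% = vehicle and 100% = reference antibiotic; read after six days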
Numbers without * were called inactive; ? = inconclusive; · = not tested or not shown.

SMILES	Sa ugtP lethal	BJeLR lethal	PrP 5UTR inh	Autofluor counter	RN4220 kill	Mtb hypoxia inh	Mtb hypoxia inh growth
COc1ccc(N=C2SC(=Cc3cccs3)C(=O)N2CC(C)C)cc1	4	·	·	·	-9.8	-4	2
Cn1c(C2=C(O)CN(c3ccccc3)C2=N)nc2ccccc21	6	4	-12	3600	2.8	14	9
CCc1nnc(NC(=O)CCC(=O)N2CCN(C3c4ccccc4-c4ccccc43)CC2)s1	-5	2	-11	2535	2.0	6	5
COCCN(C(=O)COC(=O)CCCOc1ccc(OC)cc1)c1c(N)n(Cc2ccccc2)c(=O)[nH]c1=O	13	3	-21	6217	-1.7	5	7
Cc1cc(C)n(-c2nnc(C)n2N=Cc2ccc(O)cc2)n1	-1	·	·	·	5.5	6	3
O=C(NCCCN1CCOCC1)c1ccc(Br)s1	-1	6	-33	10455	-0.7	4	5
COc1ccc(C)cc1S(=O)(=O)NC(C)C(=O)NC1CC1 (stereo not drawn)	1	-21	-7	?	1.3	10	-4
COc1ccc(OC)c(C=NNC(=O)C(=O)NCc2cccnc2)c1	-5	·	·	·	-0.4	-4	-3
COc1cc(CCC(=O)NCC2CCCO2)cc(OC)c1OC (stereo not drawn)	5	2	-4	6057	3.1	2	0
COc1ccccc1-c1nc(C#N)c(N2CCc3ccccc3C2)o1	-17	-5	-2	11156	4.3	4	6
C#CCOCCOCCOCCNc1nc(N2CCN(C(=O)Cn3cc(CCCCN)nn3)CC2)nc(N2CCN(C(=O)[C@H](CCCCN)n3cc(CCCC)nn3)CC2)n1	-7	·	-1	4006	-13	0	1
O=C(NCc1ccc2c(c1)OCO2)c1ccc(S(=O)(=O)N2CCOCC2)cc1	1	2	-19	4029	2.5	4	-1
Cc1noc(C)c1S(=O)(=O)Nc1ccc2c(c1)C(=O)N([C@H](C)CO)C[C@H](C)[C@@H](CN(C)C(=O)NC(C)C)O2	15	·	-4	3039	6.2	-5	1
COc1ccc(Cl)cc1NC(=O)CN(C)CC(=O)Nc1ccc(C)cc1Br	6	·	-3	3795	-4.3	12	5
CC(OC(=O)c1ccc(Br)c(S(=O)(=O)N2CCOCC2)c1)C(=O)NC1CCCCC1C (stereo not drawn)	1	-4	-41	6371	1.5	1	1
O=C(CSCc1ccccc1)NCCc1ccc(F)cc1	-2	-1	-17	3708	2.5	5	-2
O=C(N/N=C/c1ccc(N2CCCCC2)o1)c1ccccc1[N+](=O)[O-]	·	8	-10	2264	·	·	·
O=C(CC(C(=O)O)c1ccc(Cl)cc1)c1ccc(Br)cc1 (stereo not drawn)	10	-4	13	3525	46	10	14
Cc1nc2ccccc2c(=O)n1N=Cc1cccs1	3	·	·	·	3.2	-12	-4
CN1CCN(S(=O)(=O)c2ccc(C(F)(F)F)cc2)C(c2ccccc2)C1 (stereo not drawn)	11	·	·	?	6.6	11	0
O=c1oc2cc(Oc3c([N+](=O)[O-])cc(C(F)(F)F)cc3[N+](=O)[O-])ccc2c2c1CCCC2	94*	5	-16	9429	44	-4	-1
Oc1ccc(/C=C/c2ccc3cccc(O)c3n2)cc1Br	-13	-13	-5	3706	-13	-7	10
O=C(NC1CCN(Cc2ccccc2)CC1)c1cncc(Br)c1	-3	8	-25	4861	-2.2	-4	-8
COc1ccc(/C=C(/NC(=O)c2ccco2)C(=O)N2CCCCC2)cc1	-8	-1	-2	5618	-2.9	-4	7
COc1ccc(N(C(=O)CSCC(=O)Nc2cc(C)on2)C(C(=O)NC2CCCCC2)c2ccc(O)c(O)c2)cc1 (stereo not drawn)	8	-11	-15	2461	7.4	10	2

A portion of the results above:
SMILES	Sa ugtP lethal	BJeLR lethal	PrP 5UTR inh	Autofluor counter	RN4220 kill	Mtb hypoxia inh	Mtb hypoxia inh growth
O=C(NCc1ccc2c(c1)OCO2)c1ccc(S(=O)(=O)N2CCOCC2)cc1	1	2	-19	4029	2.5	4	-1
Cc1noc(C)c1S(=O)(=O)Nc1ccc2c(c1)C(=O)N([C@H](C)CO)C[C@H](C)[C@@H](CN(C)C(=O)NC(C)C)O2	15	·	-4	3039	6.2	-5	1
COc1ccc(Cl)cc1NC(=O)CN(C)CC(=O)Nc1ccc(C)cc1Br	6	·	-3	3795	-4.3	12	5
CC(OC(=O)c1ccc(Br)c(S(=O)(=O)N2CCOCC2)c1)C(=O)NC1CCCCC1C (stereo not drawn)	1	-4	-41	6371	1.5	1	1

The main list resumes with the four entries that preceded the break.
SMILES	Sa ugtP lethal	BJeLR lethal	PrP 5UTR inh	Autofluor counter	RN4220 kill	Mtb hypoxia inh	Mtb hypoxia inh growth
Oc1ccc(/C=C/c2ccc3cccc(O)c3n2)cc1Br	-13	-13	-5	3706	-13	-7	10
O=C(NC1CCN(Cc2ccccc2)CC1)c1cncc(Br)c1	-3	8	-25	4861	-2.2	-4	-8
COc1ccc(/C=C(/NC(=O)c2ccco2)C(=O)N2CCCCC2)cc1	-8	-1	-2	5618	-2.9	-4	7
COc1ccc(N(C(=O)CSCC(=O)Nc2cc(C)on2)C(C(=O)NC2CCCCC2)c2ccc(O)c(O)c2)cc1 (stereo not drawn)	8	-11	-15	2461	7.4	10	2
CCc1nnc(N/N=C/c2ccc(-c3ccc([N+](=O)[O-])cc3)o2)n1N	·	-4	-46	2722	·	·	·
Cc1ccccc1NS(=O)(=O)c1ccc(NC(=O)CSCc2ccc(Br)cc2)cc1	-8	-5	-14	8329	29	16	12
COc1ccc(-c2[nH]n(-c3ccc([N+](=O)[O-])cc3)c(=O)c2C=NCCN2CCNCC2)cc1	-1	3	·	·	4.7	16	5
CCCc1cc(=O)[nH]c(NN=C/C=C\c2ccccc2)n1	-3	·	·	·	8.0	·	·
CC(C)(C)c1ccc(-c2c(C#N)c(N)nc3c2CCCC3)s1	28	1	-19	6610	0.9	1	0
CCC(=O)c1ccc(OCCn2cnc3ccccc32)cc1	6	4	-10	3857	16	3	3
O=C(NN=Cc1ccc([N+](=O)[O-])o1)c1cc(-c2ccncc2)nc2ccccc12	-3	·	·	·	2.9	-4	5
O=C(COC(=O)/C=C/c1ccc(Cl)cc1)Nc1ccc2c(c1)OCCO2	3	6	-5	2432	8.1	3	3
CCOC(=O)C1CCCN(C(=O)CCn2nnnc2CN2CCOCC2)C1 (stereo not drawn)	-1	13	-114	4509	3.8	-8	-8
Cc1c(Cl)c([N+](=O)[O-])nn1CCCC(=O)Nc1c(C)n(C)n(-c2ccccc2)c1=O	9	-1	-19	4729	-0.3	0	-8
Cc1nnc(Sc2cc(NCCCO)c([N+](=O)[O-])c3nonc23)s1	-4	-4	-10	4212	0.4	-5	2
O=C(O)Cc1ccc(NC(=O)CCN2C(=O)c3ccc([N+](=O)[O-])cc3C2=O)cc1	7	3	-57	4086	6.9	3	-1
COc1ccc(NC(=O)C2CCCN(c3ncnc4onc(-c5ccc(F)cc5)c34)C2)cc1 (stereo not drawn)	1	4	-7	6442	2.1	-4	2
CC(=O)Nc1ccc(S(=O)(=O)NCC2CCC(C(=O)NC3CCCCCC3)CC2)cc1 (stereo not drawn)	-1	18	-16	2235	4.0	15	5
Cc1ccc(OCc2cc(C(=O)N3CCCC3)no2)cn1	1	5	-46	4282	2.0	-7	-2
O=C(COC(=O)c1c(F)cccc1F)NCc1cccs1	2	·	-17	2816	4.9	4	4
COc1ccc(CCNC(=O)C2CCCN2C(=O)Nc2ccc(F)cc2)cc1OC (stereo not drawn)	9	-1	-48	3838	-4.7	2	11
CCCCCCC(=O)NNC(=O)c1c(O)c2ccccc2n(CC)c1=O	-7	-4	-4	2137	25	-1	-4
CCCN(C(=O)Cc1c(C(=O)O)n(C)c2ccccc12)c1cccc(C)c1	-7	3	-17	3504	8.9	5	-3
CC(C)C(=O)Nc1cccc(NC(=O)c2cccc(F)c2)c1	-5	5	-28	2183	-2.4	-4	1
CCOC(=O)COn1c2c(c3c4no[n+]([O-])c4ccc31)CCCC2	15	-5	-3	2497	14	21	0
Cc1nc[nH]c(=O)c1Br	5	-2	-65	2004	4.3	7	3
Cc1cc(C)c2c(n1)nn1c(C3CC3)cc(C(F)(F)F)nc21	6	-4	-16	2381	-1.8	·	·
Cc1c(-c2ccccc2)nc2ccccc2c1C(=O)Oc1ccc([N+](=O)[O-])cc1	-8	1	-3	3474	9.3	·	·
Cc1ccc(C=NN=Cc2ccc(C)s2)s1	11	·	·	·	11	2	1

Whole records as entered above:
Shown for `Cc1nc[nH]c(=O)c1Br` → Sa ugtP lethal: 5; BJeLR lethal: -2; PrP 5UTR inh: -65; Autofluor counter: 2004; RN4220 kill: 4.3; Mtb hypoxia inh: 7; Mtb hypoxia inh growth: 3
Shown for `Cc1ccccc1NS(=O)(=O)c1ccc(NC(=O)CSCc2ccc(Br)cc2)cc1` → Sa ugtP lethal: -8; BJeLR lethal: -5; PrP 5UTR inh: -14; Autofluor counter: 8329; RN4220 kill: 29; Mtb hypoxia inh: 16; Mtb hypoxia inh growth: 12

More compounds follow:
SMILES	Sa ugtP lethal	BJeLR lethal	PrP 5UTR inh	Autofluor counter	RN4220 kill	Mtb hypoxia inh	Mtb hypoxia inh growth
Cc1cc(C(=O)c2cnc(N=CN(C)C)s2)cc(C)c1O	-2	·	·	·	0.0	4	9
COc1ccc(N2C(=O)CCC(C(=O)N3CCOCC3)C2c2ccc(F)cc2)cc1 (stereo not drawn)	11	10	-32	3238	6.8	16	6
N#C/C(=C/c1cccs1)c1ccccn1	4	-4	-68	5668	6.6	5	15
O=S1(=O)C=C(Sc2nc3cc(Cl)ccc3o2)c2ccccc21	91*	30	-31	3403	42	·	·
O=C(CSc1ccccc1)N1CCCC(N2CCN(c3cccc(Cl)c3)CC2)C1 (stereo not drawn)	·	4	-6	?	·	·	·
CN(C)S(=O)(=O)c1ccc(N2CCCC2)c(C(=O)NC(c2ccccc2)c2ccccc2)c1	6	-2	-46	6143	-2.3	7	18
O=C(Nc1ccc(C2SCCS2)cc1)c1ccccc1	0	1	·	·	0.6	5	10
O=C(c1ccc(Cl)c(Cl)c1)N1CCC(=O)N(C(CO)Cc2ccccc2)CC1 (stereo not drawn)	-11	-9	-9	3384	0.8	4	4
Fc1ccc2nc3[nH]c4ccccc4c3nc2c1	-5	1	-100	?	0.1	-1	5
C=CCn1c(C(CCCC)CC(O)COCC(C)C)n[nH]c1=S (stereo not drawn)	-2	2	-17	2733	2.9	4	3
COc1cc(/C=C(\NC(C)=O)C(=O)Nc2cccc(O)c2)ccc1OC(C)=O	·	6	0	2503	·	·	·
CCCn1nnnc1NCc1ccccc1C	-1	-3	-10	3404	-2.2	-6	3
COc1ccc(CNC(=O)CN(c2ccc(C(C)C)cc2)S(=O)(=O)c2c(C)noc2C)cc1	-1	-3	-29	·	0.7	-3	-2
COc1cnc(-c2ccccn2)nc1Sc1c(Cl)cccc1Cl	39	-13	-6	14862	5.4	-8	-3
Cc1[nH]c2ccccc2c1C=NNC(=O)c1ccc(N)cc1	1	·	·	·	-1.3	-2	-4
COc1ccc(-n2nnnc2SCC(=O)NCCc2ccccc2)cc1OC	-1	4	-15	3904	3.7	7	2
CCCCCOC(=O)c1ccc(OC(=O)c2cncc(Br)c2)cc1	17	-7	-52	9601	13	2	-8
Cc1sc(NC(=O)CSC2=NCCS2)nc1-c1ccccc1	·	3	-9	4813	·	·	·
CS(=O)(=O)c1ccc(Cl)c(NC(=O)COC(=O)c2cccc(C#N)c2)c1	9	-1	-23	5062	2.3	-1	-1
COC(=O)c1c(NC(=O)Cc2cccs2)sc(C)c1C	18	1	-19	21860*	14	2	6
CC1=C(C(=O)OC2CCCCC2)C(c2cccc([N+](=O)[O-])c2)NC(=O)N1 (stereo not drawn)	1	-4	-8	3438	0.7	3	-3
CCOC(=O)C1=C(C)c2ccccc2OC1(C(=O)OCC)c1ccccc1 (stereo not drawn)	15	·	12	3282	7.2	-2	-2
COC(C[C@H]1O[C@H]1[C@@H](O)[C@@H](C)OCc1ccccc1)OC	·	1	-18	4339	·	·	·
O=c1[nH]c2cc([N+](=O)[O-])c(NCCO)c([N+](=O)[O-])c2[nH]1	13	-1	-3	4591	3.4	13	-6
C/C(=N\NC(=O)c1nn(C)c(C)c1Br)c1ccc(NC(=O)c2ccc(C)s2)cc1	·	-7	-70	3143	·	·	·

Compound activity: PubChem BioAssay, several laboratories
